Vaccinia mCherry: inhibitors of vaccinia virus infection (mCherry reporter signal). Vaccinia virus mCherry reporter infection, fluorescence; about a quarter of the inactives have no number. Potency, µM (top dose mostly 36.5 µM), for inactives: at the highest dose activity change, negative = inhibition, hits mostly inhibitors. 310,000 tested, 0.63% active. AID 720579; active = well fitted inhibition curve with a large enough effect; inconclusive = small, poorly fitted or top-dose-only effect; inactive = no such curve, though single readings can be large or run the other way; tested in A549 cells; further: nearly all actives have a fitted effect of over 35% in size; inactives centre near -10
Vaccinia Venus: vaccinia inhibition (Venus reporter). AID 720580. Vaccinia virus Venus reporter expression, fluorescence. 330,000 tested, 0.46% active. Potency, µM (highest dose often 36.5 µM), for inactives: at the top dose activity change, negative = inhibition, hits mostly inhibitors; active means well fitted inhibition curve with a large enough effect; inconclusive means small, poorly fitted or top-dose-only effect; inactive means no such curve, though single readings can be large or run the other way; tested in A549 cells; further: nearly all actives have a fitted effect of over 30% in size; inactives centre near -10
* marks the source's active call; other numbers are inactive results; i = inactive; ? = inconclusive; · = no result given; & = joins results of further samples; [ ] = another dose, or the depositor's remark. On the % scale 0 is the no-effect control and ±100 the full control effect; potency means the concentration at half of the fitted maximal effect. No enrichment for hits. About 0.86% of those tested had a hit in this group.

SMILES	Vaccinia mCherry	Vaccinia Venus
O=c1c2ccccc2nc(SCc2cccc(F)c2)n1-c1cccc(S(=O)(=O)N2CCCC2)c1	i	-6.1%
Cc1cc(C)nc(SCc2c(F)cccc2Cl)n1	-16.9%	-9.9%
CCCCc1cc(=O)oc2cc(OCC(=O)N3CCOCC3)ccc12	-6.3%	7.4%
CCOC(=O)c1c(C)[nH]c(C)c1S(=O)(=O)N(C)CC(=O)N1CCN(c2cccc(C)c2C)CC1	-27.7%	-22.3%
Nc1c(C(=O)c2ccccc2)sc(Nc2ccc(Cl)c(Cl)c2)c1C(=O)Nc1ccccc1	?	?
CN(C)C(CNC(=O)c1ccc(S(=O)(=O)Nc2ccccc2)cc1)c1ccco1 (stereo not drawn)	-10.7%	-5.6%
COc1ccc(CC(=O)Nc2nc(-c3ccccc3)c(C(C)=O)s2)cc1OC	-15.5%	-22.7%
CC(=O)N1CC[N+](C)(C)CC1	-8.5%	-6.2%
CCN1C(=O)/C(=C/c2nc3ccccc3c(=O)n2-c2ccccc2)c2ccccc21	·	?
CC(C)COC(=O)n1c(=O)oc2ccc(S(=O)(=O)N3CCCCC3)cc21	-25.5%	-18.0%
Cc1nn(-c2ccccc2)c2c1N(CC(=O)N1CCN(c3ccccc3F)CC1)C(=O)CS2	-16.9%	-13.6%
Cc1ccc(C)c(Oc2ncnc(N)c2[N+](=O)[O-])c1	-2.1%	-7.9%
CCC(CC)c1nnc(NC(=O)c2cccc(S(=O)(=O)N3CCc4ccccc43)c2)s1	-13.1%	-10.1%
CC(C)CN1CCN(Cc2cn(C)c3ccccc23)CC1CCO (stereo not drawn)	-16.6%	-10.3%
COc1ccc(Cn2c(=O)c3[nH]cnc3n(-c3ccccc3C)c2=O)cc1	?	-28.5%
CN(C(=O)C(Cl)Cl)c1ccc(OC(=O)c2ccco2)cc1	i	-7.0%
Cc1ccc(C)c(CN2C[C@H](Sc3ccccn3)C[C@H]2C(=O)Nc2ccc3sc(C)nc3c2)c1	i	0.5%
COc1ccc(OC)c(-c2noc(N3CCN(c4cccc(C(F)(F)F)c4)CC3)n2)c1	1.2%	6.5%
O=C(c1cccs1)N(Cc1nc2sc3c(c2c(=O)[nH]1)CCCC3)C1CCCC1	12.6µM*	-17.2%
O=C(C(=O)N1CCN(c2ccc(F)cc2)CC1)c1c[nH]c2ccccc12	-12.9%	-11.4%
COc1ccc(OCc2ccc(-c3nc(C#N)c(NCc4ccccc4)o3)o2)cc1	-0.7%	-5.3%
CC(NC(=O)Cn1ccsc1=N)C12CC3CC(CC(C3)C1)C2 (stereo not drawn)	i	-11.2%
CCOc1ccc(C(=O)c2cn(Cc3ccc(Cl)cc3)c3cc(OC)c(OC)cc3c2=O)cc1	-14.0%	?
COCCCN1C(=O)C(CC(=O)NCCCCc2ccccc2)CC(C(=O)N2CCOCC2)=C1C (stereo not drawn)	-0.6%	-17.3%
O=c1cc(CCl)[nH]c2nc3ccccc3n12	8.0%[7.34 µM]	1.5%[7.34 µM]

Further compounds.
SMILES	Vaccinia mCherry	Vaccinia Venus
Fc1ccc(CSc2ncnc3ccccc23)cc1	-18.5%	-11.9%
COc1cc(OC)c(NC(=O)c2cc(C(C)=O)n3ccccc23)cc1Cl	-20.0%	-14.2%
Cc1ccc(C(O)c2ncc(-c3cccc(C(F)(F)F)c3)[nH]2)cc1F (stereo not drawn)	?	?
O=[N+]([O-])c1cc(S(=O)(=O)N2CCOCC2)ccc1N1CCCC1	i	-10.9%
COc1ccc(CCCNC(=O)C2CCC(=O)N(Cc3ccc(Cl)cc3)C2)cc1 (stereo not drawn)	-14.6%	-25.5%
Cc1cccc(OCC(=O)Nc2ccc(NC(=O)c3ccco3)c(C)c2)c1	3.0%	-10.6%
O=C(Cc1ccc(Cl)cc1)NNC1CC(=O)N(c2ccc3ccccc3c2)C1=O (stereo not drawn)	-18.1%	-7.2%
CCCCn1c(N)c(N(CCOC)C(=O)CSc2nnc(-c3ccc(F)cc3)n2N)c(=O)[nH]c1=O	-12.7%	-9.4%
CCOc1ccc(CC(=O)NNC(=S)NC)cc1Br	-9.7%	-7.5%
COc1ccccc1Oc1nc(C)c(C(C)=O)cc1C#N	i	-14.6%
COc1cc(CN2CCN(CCc3ccccc3)C(CCO)C2)cc(OC)c1 (stereo not drawn)	i	-5.1%
COc1ccc(CNc2ccc(-c3ccc(OC)cc3)nn2)cc1	-20.1%	-9.4%
COc1cc(CN2CCOc3ccc(CN4CCN(CCO)CC4)cc3C2)ccc1F	-15.2%	-4.0%
CCOC(=O)C1=C(C)N=C2SC(C)C(=O)N2C1c1ccc(OC(C)=O)c(OC)c1 (stereo not drawn)	-17.1%	-13.6%
COc1ccc(NC(=O)CN(C)C(=O)CCc2c[nH]c3ccccc23)cc1	-15.9%	-1.2%
CCCN1CCC(=O)N(CCSc2ccc(C)cc2)CC1	-19.3%	-8.5%
CC1(C)OC(=O)C2=C(CC(c3ccccc3)OC2CCc2ccccc2)O1 (stereo not drawn)	-17.8%	-16.8%
COC(=O)c1cc(S(=O)(=O)Nc2c(C)cccc2C)cn1C	i	-4.4%
C[C@@H]1C(=O)O[C@H]2[C@H](O)[C@]34[C@@H]5OC(=O)[C@]3(OC3OC(=O)[C@H](O)C34[C@H](C(C)(C)C)[C@@H]5O)[C@@]12O (stereo partly drawn)	-1.8%	-12.3%
O=C(O)CSc1nc2ccccc2n1Cc1ccccc1	-7.9%	-5.6%
CC(=O)Nc1ccc(S(=O)(=O)Nc2nc3ccccc3nc2N2CCOCC2)cc1	-13.1%	-12.2%
COc1ccc2c3n(nc2c1)CCN=C3c1ccc(Cl)cc1	i	-13.2%
CN(C)S(=O)(=O)Oc1cccc(C(=O)Nc2ccc(Cl)c(Cl)c2)c1	?	?
CC(C)(C)OC(=O)N/N=C\c1ccc[nH]1	i	-10.0%
CN(C)c1ccc(/C=N/n2c(COc3ccccc3)n[nH]c2=S)cc1	-9.3%	-9.2%

(list continues)
SMILES	Vaccinia mCherry	Vaccinia Venus
COc1ccc(NC(=O)C/C(C)=N/NC(=O)CCc2ccccc2)c(OC)c1	-19.4%	-16.8%
COc1ccc(/C=C(\C#N)C(=O)NCc2ccccc2)cc1O	-21.3%	-16.2%
COc1ccc2c(c1)N(C(=O)CSc1n[nH]c(C)n1)C(C)(C)C=C2C	·	-15.4%
CCOc1cc(/C=N/NC(=O)Cn2nc([N+](=O)[O-])cc2C)ccc1OCc1ccc(F)cc1	-15.2%	-15.7%
CC(Oc1ccc(Br)cc1)C(=O)O/N=C(\N)c1ccncc1 (stereo not drawn)	-17.9%	-14.7%
CC(=O)N1c2ccc(S(=O)(=O)NCCC(=O)Nc3ccc(C)c(F)c3)cc2CC1C (stereo not drawn)	-7.3%	-9.4%
COc1cc(NC(=O)CSc2c3c(nc4ccccc24)CCC3)cc(OC)c1OC	-6.5%&-15.2%	-8.1%&-28.5%
C=CCNC(=O)C1CC(c2cccc(OC)c2)=NO1 (stereo not drawn)	i	-6.6%
COc1ccc(N2CSC3=C(C#N)C(c4ccc(OC)c(OC)c4)CC(=O)N3C2)c(OC)c1 (stereo not drawn)	?	-7.4%
CCc1cccc(NC(=O)Nc2cccs2)c1	·	-12.3%
COc1ccccc1NC(=O)C(C)NS(=O)(=O)c1ccccc1 (stereo not drawn)	-9.1%	-6.8%
CSc1nc2c(c(=O)[nH]1)C(c1cccc(Br)c1)CC(=O)N2 (stereo not drawn)	-9.9%	-14.6%
Cn1c(=O)n(C)c2cc(S(=O)(=O)Nc3ccccc3O)ccc21	i	0.8%
CSCCNC(=O)C1(C)CCN1C(=O)c1cc(C)n(C)n1 (stereo not drawn)	6.8%	1.0%
COc1ccc(C(=O)CC2C(=O)N(C)C(=O)N(C)C2=O)cc1	·	-28.8%
COC(C[C@H](O)C[C@H](O)COCc1ccccc1)OC	-6.8%	-4.7%
CC(C)(C)c1cc(Br)c(O)c(N=Nc2ccc(S(=O)(=O)N3CCOCC3)cc2)c1	-20.2%	0.2%
CCn1c(SCC(=O)Nc2cc(F)ccc2C)nnc1-c1ccccc1O	·	-26.3%
CCn1c(-c2ccncc2)n[nH]c1=S	i	-0.5%
CCC(=O)N1CCc2cc(Br)c(S(=O)(=O)NCCN3CCCCC3CC)cc21 (stereo not drawn)	-4.0%	-4.7%
O=C(COC(=O)COc1ccc(Cl)cc1)NCCNC(=O)COC(=O)COc1ccc(Cl)cc1	-14.7%	-0.5%
COc1ccc(N2CCN(C(=S)NC(C)c3ccccc3)CC2)cc1 (stereo not drawn)	-14.1%	-13.5%
COc1cccc(NC(=O)CSc2nc3n[nH]c(C)c3c(=N)n2-c2cccc(OC)c2)c1	·	?
CC(C)(C)NC(=O)COC(=O)/C=C/c1ccc(F)cc1	-15.5%	-4.8%
COc1cc(OC)cc(C(=O)N2CCC(N3CCN(c4ccccc4OC)CC3)CC2)c1	?	-23.0%

Some of the entries above, set out differently.
Each structure is followed by: Vaccinia mCherry | Vaccinia Venus
> COc1cccc(NC(=O)CSc2nc3n[nH]c(C)c3c(=N)n2-c2cccc(OC)c2)c1
→ · | ?
> CC(C)(C)NC(=O)COC(=O)/C=C/c1ccc(F)cc1
→ -15.5% | -4.8%

Carrying on:
SMILES	Vaccinia mCherry	Vaccinia Venus
O=C(COC(=O)CCC1CCCC1)Nc1ccccc1OC(F)F	i	-19.0%
CCNC(=O)N(CC)C[C@H]1N[C@@](C)(C(=O)OC)[C@H]2C(=O)N(C)C(=O)[C@@H]12	-13.0%	-13.8%
NC(=O)c1ccc(N2CCN(c3ncc(C(F)(F)F)cc3Cl)CC2)cc1	-8.6%	-4.4%
CN(C)S(=O)(=O)c1ccc2c(c1)C(CC(=O)O)NC2=O (stereo not drawn)	-6.3%	3.1%
COc1ccc(-c2nnc(Sc3nc4ccccc4o3)c3ccccc23)cc1	8.91µM*	11.2µM*
Cc1cc(C)cc(-n2c(SCC(=O)NCc3ccco3)nc3ccccc3c2=O)c1	·	?
NC(=O)c1ccc2c(=O)c(O)c(-c3cc(Cl)c(N)c(Cl)c3)[nH]c2c1	i	-6.5%
Cc1noc(C)c1S(=O)(=O)N1CCCC(C(=O)NCCC2=CCCCC2)C1 (stereo not drawn)	-3.9%	-9.9%
O=C(O)c1ccc(NC(=O)c2ccc(Cl)c(S(=O)(=O)N3CCCCCC3)c2)cc1	-6.8%	-2.1%
Cc1ccc(CCC(=O)Nc2ccc([N+](=O)[O-])cc2)o1	-24.1%	-14.1%
O=C(C1CC(=O)N(c2ccc(Br)cc2)C1)N1CCCC1 (stereo not drawn)	-16.8%	-13.2%
C[C@H](CO)NC(=O)[C@@H]1C[C@H]1[C@@H](NP(=O)(c1ccccc1)c1ccccc1)c1ccccc1	i	-3.1%
CC1CCc2c(C(=O)NCc3ccco3)csc2C1 (stereo not drawn)	-7.0%	-16.4%
COc1ccc2sc(C)nc2c1NC(C)=O	·	-1.9%
O=C(COC(=O)/C=C/c1ccc(OC(F)F)cc1)Nc1ccc(N2CCOCC2)cc1	i	-4.4%
C=CCN1C=C2C(=O)C(C)(OC(=O)C3CCCC3)C(=O)C=C2C=C1c1ccsc1 (stereo not drawn)	-18.4%	-11.4%
CCN1CCCC1CNC(=O)C(=O)NC(C)c1ccccc1 (stereo not drawn)	-14.6%	3.5%
Cc1cccc(NC(=O)Cn2nc(-c3ccccc3)c3cnc4ccccc4c32)c1	-11.8%	-4.6%
Fc1cccc(F)c1-n1c(CN2CCCCC2)csc1=S	-23.0%	-20.1%
Cn1ccsc1=NC(=O)c1cc(S(=O)(=O)N2CCOCC2)ccc1F	-6.6%	-10.3%
C=C[C@H]1[C@H](O[C@@H]2O[C@H](CO)[C@@H](O)[C@H](O)[C@H]2O)OC=C2C(=O)OCC[C@]21O	i	1.8%
CCOC(=O)c1ccc(NC(=S)NCCc2ccccc2F)cc1	13.4%	5.9%
N#C/C(=C/c1ccc(Br)s1)C(=O)NCCc1c[nH]c2ccccc12	-3.6%	-19.8%
O=C(Nc1ccccc1)N(C1=NCCCCS1)c1ccccc1	·	1.4%
CC(=O)/C(C[N+]1(C)CCCCC1)=N\O	·	-8.6%

Arranged by molecular weight (ascending): part of the list above
SMILES	Vaccinia mCherry	Vaccinia Venus
COc1ccc2sc(C)nc2c1NC(C)=O	·	-1.9%
Cc1ccc(CCC(=O)Nc2ccc([N+](=O)[O-])cc2)o1	-24.1%	-14.1%
CC1CCc2c(C(=O)NCc3ccco3)csc2C1 (stereo not drawn)	-7.0%	-16.4%
Fc1cccc(F)c1-n1c(CN2CCCCC2)csc1=S	-23.0%	-20.1%
Cn1ccsc1=NC(=O)c1cc(S(=O)(=O)N2CCOCC2)ccc1F	-6.6%	-10.3%
O=C(COC(=O)/C=C/c1ccc(OC(F)F)cc1)Nc1ccc(N2CCOCC2)cc1	i	-4.4%

Additional entries
SMILES	Vaccinia mCherry	Vaccinia Venus
COC(=O)Cc1[nH]c(=S)[nH]c1C(=O)OC	-19.3%	-10.6%
COC(=O)c1cc(C(=O)N2CCN(c3cccc(Cl)c3)CC2)cc([N+](=O)[O-])c1	?	-23.2%
Cc1nn(Cc2ccccc2Cl)c(C)c1C(=O)OCC(=O)NC1CCCC(C)C1C (stereo not drawn)	i	-4.5%
CN(C(=O)c1cccc(NC(=O)Cc2cccc([N+](=O)[O-])c2)c1)C1CCC1	?	?
COCCN1Cc2cccc(C(=O)Nc3c(C)cc(C)cc3C)c2C1=O	-16.9%	-14.5%
COc1ccc(NC(=O)c2ccc3c(=O)n(-c4ccc(OC)cc4OC)c(=S)[nH]c3c2)cc1	-25.5%	-25.3%
O=C(NC1CCCCC1)N1CCC(n2cnc3ccccc32)CC1	-14.6%	-5.8%
O=C1CC2(CCN(C(=O)c3ccc(F)c(F)c3)CC2)Oc2ccccc21	-13.4%	-15.2%

High-throughput results from PubChem.
